Lassa entry inh: qHTS for Inhibitors of binding or entry into cells for Lassa Virus. Lassa virus pseudotype entry inhibition, cell reporter; control for the full effect not named in the record. Potency, µM (titrated, usually from 37.9 µM), for the others: top-dose activity change, negative = inhibition, most hits filed as inhibitors. 1.2% of 300,000 active. AID 540256, 2011; active means well fitted inhibition curve with a large enough effect; inconclusive means small, poorly fitted or top-dose-only effect, or effect the other way; inactive means flat fitted curve, though single readings scatter; tested in HEK293 cells; also: % is scaled to controls: 0 for no effect and ±100 for the full control effect; nearly all actives have a fitted effect of over 50% in size; luciferase read-out
Cruzain inh noDet: qHTS Assay for Promiscuous and Specific Inhibitors of Cruzain (without detergent). Cruzipain (Trypanosoma cruzi), P25779. purified cruzain, Z-FR-AMC fluorescence, no detergent. Potency, µM, for the others: max response, negative = inhibition, most hits filed as inhibitors. 2.3% of 200,000 active. AID 1476, 2009;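 also: plate controls were enzyme without inhibitor for no effect and buffer without enzyme for full effect; nearly all actives have a fitted effect of over 40% in size; top concentration of the series not given in the record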
Target sequence (P25779 123-467 limits assumed): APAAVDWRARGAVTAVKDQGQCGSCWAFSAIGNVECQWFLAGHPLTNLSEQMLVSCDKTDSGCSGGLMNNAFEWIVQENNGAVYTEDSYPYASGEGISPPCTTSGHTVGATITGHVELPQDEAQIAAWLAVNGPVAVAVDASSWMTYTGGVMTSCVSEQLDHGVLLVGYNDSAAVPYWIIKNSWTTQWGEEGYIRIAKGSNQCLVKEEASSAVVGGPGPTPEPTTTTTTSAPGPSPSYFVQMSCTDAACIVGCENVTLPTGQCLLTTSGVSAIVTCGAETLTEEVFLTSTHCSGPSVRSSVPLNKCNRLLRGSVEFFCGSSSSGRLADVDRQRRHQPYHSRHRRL
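Purified cruzain at 1.5 nM, pre-incubated 15 min with compound at room temperature in 100 mM sodium acetate pH 5.5, 5 mM DTT, 0.00005% Triton X-100. Reaction started with 2 uM Z-FR-AMC; AMC fluorescence increase over 60 s gives rate.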
MARV entry inh: qHTS for inhibitors of binding or entry into cells for Marburg Virus. Marburg virus pseudotyped entry inhibition, cell reporter; control for the full effect not named in the record; about a third of the inactives were read at about 46 µM. Potency, µM (top dose mostly 37.8 µM), inactives show at the top dose activity change, negative = inhibition, hits mostly inhibitors. 1.8% of 300,000 active. AID 540276, 2011; active = well fitted inhibition curve with a large enough effect; inconclusive = small, poorly fitted or top-dose-only effect, or effect the other way; inactive = flat fitted curve, though single readings scatter; tested in HEK293 cells; about a fifth of its hits are not listed in these tables; also: % is scaled to controls: 0 for no effect and ±100 for the full control effect; luciferase read-out
RE007 growth inh: qHTS Assay for Inhibitors of the HIV-1 protein Vpr. Potency, µM (top dose mostly 92.2 µM), inactives show top-dose activity change, negative = less growth. 0.21% of 360,000 active. S. pombe RE007 Vpr strain, BacTiter-Glo ATP luminescence, 24 h; control for the full effect not named in the record. AID 651644, 2012; active = well fitted falling curve with a large enough effect; inconclusive = small, poorly fitted or top-dose-only effect; inactive = no such curve, though single readings can be large or run the other way;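 also: % is scaled to controls: 0 for no effect and ±100 for the full control effect; nearly all actives have a fitted effect of over 50% in size; the assay follows cell death caused by Vpr and the record does not say whether a fall means rescue or toxicity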
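Fission yeast strain RE007, carrying one chromosomally integrated HIV-1 vpr copy, was seeded at OD 0.01 in PMG+AL medium with 23 nL pinned compound. After 24 h at 30 °C and 99% humidity, viability was read by BacTiter-Glo luminescence.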
Cruzain Triton: qHTS Assay for Promiscuous and Specific Inhibitors of Cruzain (with detergent); 0.43% of 200,000 active; Cruzipain (Trypanosoma cruzi), P25779; Potency, µM, without a hit: max response, negative = inhibition, actives largely listed as inhibitors; purified cruzain, Z-FR-AMC fluorescence, 0.01% Triton;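 also: plate controls were neutral wells for no effect and buffer without enzyme for full effect; nearly all actives have a fitted effect of over 40% in size; top concentration of the series not given in the record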
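15 min RT preincubation of 1.5 nM cruzain with compound, then 2 uM Z-FR-AMC added; kinetic AMC fluorescence, 60 s delta. Triton X-100 0.01%, pH 5.5.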
SARS PLP yeast: qHTS of Yeast-based Assay for SARS-CoV PLP | Potency, µM (highest dose often 32.9 µM), inactives show at the highest dose activity, positive = growth rescue | S. cerevisiae expressing SARS-CoV PLpro, growth rescue; control for the full effect not named in the record | 0.19% of 330,000 active; active means well fitted rising curve with a large enough effect; inconclusive means small, poorly fitted or top-dose-only effect; inactive means no such curve, though single readings can be large or run the other way; also: 0% is about no effect; nearly all actives have a fitted effect of over 55% in size; growth read by luminescence after 48 h
2A StopGo: High Throughput Screening for Foot and Mouth Disease Virus Antivirals; 1.2% of 410,000 active; human cells with a luciferase reporter of 2A StopGo recoding; control for the full effect not named in the record; Potency, µM (doses to about 57.9 µM), without a hit: at the top dose signal change, negative = less light; active = well fitted falling curve with a large enough effect; inconclusive = small, poorly fitted or top-dose-only effect; inactive = no such curve, though single readings can be large or run the other way; tested in HEK293T cells; also: % is scaled to controls: 0 for no effect and ±100 for the full control effect; nearly all actives have a fitted effect of over 45% in size; luciferase light after 4 h
NS1 function inh: qHTS Assay for Inhibitors of Influenza NS1 Protein Function; 0.4% of 270,000 active; AID 2326, 2010; S. cerevisiae slowed by influenza A NS1, growth recovery by OD600; Potency, µM (series often up to 46.1 µM), inactives show at the highest dose activity, positive = more growth; active means well fitted rising curve with a large enough effect; inconclusive means small, poorly fitted or top-dose-only effect; inactive means no such curve, though single readings can be large or run the other way; also: nearly all actives have a fitted effect of over 50% in size
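A cell-based growth assay was used: compounds that relieve NS1-induced slow growth of budding yeast raise OD600. Assay medium was yeast nitrogen base with ammonium sulphate and -URA supplement, pH 6.0, with 2% galactose.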
* marks the source's active call; other numbers are inactive results; ? = inconclusive; / = no result given; & = joins results of further samples; [ ] = dose if it differs, or a comment. Unless noted, calls follow the shape of the dose curve; as a rule, active = well fitted curve in the direction sought with a large enough effect; inconclusive = small, poorly fitted or top-dose-only effect, or another doubt; inactive = no such curve, though single readings can be large; an effect the other way counts as inactive or inconclusive. Potency is read from the fitted curve at half-maximal effect.

SMILES	Lassa entry inh	Cruzain inh noDet	MARV entry inh	RE007 growth inh	Cruzain Triton	SARS PLP yeast	2A StopGo	NS1 function inh
Cc1ccccc1NC(=S)NC(NC(=O)c1ccccc1C)C(Cl)(Cl)Cl (stereo not given)	?	10%	?	2%	-4.1%	4%	-8%	?
Cc1ccc(-n2ncc(C(=O)N3CCc4ccccc4C3)c2NC(=O)c2ccco2)cc1C	0%	-1%	2%	2%	-2.1%	16%	24%	6%
Cn1c(=O)c2c(ncn2CC(=O)N/N=C/C=C/c2ccco2)n(C)c1=O	-17%	/	-6%[14.2 µM]	4%	/	-1%	-10%	7%
N#CC(=C1CCCC1)c1nc(-c2ccccc2)cs1	-2%	-2%	-6%	-24%	-3.7%	-2%	2%	-6%
COc1ccccc1Nc1nc(-c2c(C)nc3ncccn23)cs1	?	/	?	6%	/	0%	14µM*	-4%
Cc1ccc2c(c1)N(C(=O)CCC(=O)NC1CCN(Cc3ccccc3)CC1)CC(C)O2 (stereo not given)	/	/	/	-11%	/	?	0%	3%
CCOc1ccc(CN(C)C(=O)c2cccnc2OCC)cc1OC	-14%	/	-11%[46.1 µM]	1%	/	-1%	-9%	/
CC(=O)c1cccc(NC(=O)C2=CC(c3ccc(F)cc3)=NS(=O)(=O)N2C)c1	6%[46.1 µM]	9%	-6%[46.1 µM]	/	-2.0%	/	-14%	/
CCOc1ccc(C(=O)NC(=S)Nc2ccc(NC(=O)CC)cc2)cc1[N+](=O)[O-]	?	?	9%	/	-6.1%	-9%	0%	18%
CC(C)(C)NC(=O)C(c1ccc(F)cc1)N(CC1CCCO1)C(=O)CCC(=O)Nc1ccccn1 (stereo not given)	20%	/	-30%[46.1 µM]	0%	/	1%	-15%	-4%
CC1CC(C)CN(CC(C)(C)NS(=O)(=O)c2ccccc2)C1 (stereo not given)	-10%	-3%	-21%	5%	4.3%	4%	/	3%
O=[N+]([O-])c1ccc(CC(Cl)c2ccccn2)cc1 (stereo not given)	3%[46.1 µM]	/	?	-6%	/	/	15%	/
CCOc1ccc(N2CC(C(=O)NCCN3C(=O)S/C(=C\c4ccc(OC)cc4)C3=O)CC2=O)cc1 (stereo not given)	1%	?	?	-9%	-8.0%	-2%	32%[activator]	-1%
COC(=O)c1ccc(COc2ccc3ccc(=O)oc3c2)o1	21%[46.1 µM]	/	4%[46.1 µM]	-11%	/	-2%	19%	-2%
O=C1C2CCCN2C(c2ccccc2)N1c1cccc(Cl)c1 (stereo not given)	/	0%	/	-16%	2.4%	10%	-18%	-7%
Cc1cc(-c2ccc(C)c(S(=O)(=O)N(Cc3cccs3)C(C)C)c2)on1	-30%[46.1 µM]	?	/	/	-2.7%	/	0%	/
CCc1cccc(C)c1N(C(=O)Cn1c(=O)[nH]c2ccccc21)C(C)COC (stereo not given)	4%	?	8%	-4%	-5.6%	-1%	-24%	3%
CCc1c(C)nc(SCC(=O)N2CCN(c3ccccc3OC)CC2)[nH]c1=O	-1%	-5%	6%	3%	-3.9%	-5%	-13%&3%	/
CCCCN(CC)CCCNC(=O)Cn1nc(Cc2cccnc2)c2ccccc2c1=O	12%	7%	4%	-11%	5.0%	/	1%	8%
O=C(CN1CCN(CCOCCO)CC1)N1c2ccccc2Sc2ccc(Cl)cc21	4%	-5%	4%	26%	-1.4%	-2%	-10%	9%
CC(C)CC(=O)n1nc(-c2ccco2)nc1NCc1ccc(Cl)cc1	-5%[46.1 µM]	-9%	-1%[46.1 µM]	/	-3.1%	/	28%	/
CCCC1=Nc2cc(C(=O)NC(C)c3ccccc3)ccc2Sc2ccc(C)cc21 (stereo not given)	?	-25%	?	/	-4.9%	/	-3%	/
COc1ccc(CNC(=O)/C=C\c2ccc3[nH]cc(CCN(C)C)c3c2)cc1	/	-1%	35µM*	/	-3.7%	/	17%	/
COc1ccc(Cl)cc1C(=O)O/N=C(\N)c1ccc(Cl)cc1	9%	4%	9%	-2%	-7.9%	-99%	40%[activator]	-39%
CCOC(=O)c1ccc(NC(=S)NC2CC(C)(C)NC(C)(C)C2)cc1	?	-1%	?	-7%	0.4%	-1%	-18%	0%
COc1ccc(OCC(=O)Nc2ccc(N3CCN(C(=O)c4ccccc4C)CC3)cc2)cc1	-10%	/	-27%[46.1 µM]	7%	/	0%	?	/
Cc1[nH]c(C)c(S(=O)(=O)Nc2cccc(Cl)c2C)c1C(=O)N1CCCC1	/	/	/	-8%	/	0%	42%[activator]	1%
CN(C)c1ccc(-c2nc(-c3ccncc3)no2)cc1[N+](=O)[O-]	16%[46.1 µM]	-6%	7%[46.1 µM]	/	-2.4%	/	-10%	/
O=C(CN1CCN(c2ccc(Cl)cc2)CC1)Nc1ccc(F)cc1	?	7%	-2%	-3%	-11%	-1%	?	-15%
O=C(Cc1ccccc1)NCC(=O)Nc1cc(Cl)ccc1Cl	?	/	?	1%	/	/	-1%	10%
COc1ccccc1CNCC(O)Cn1c2ccccc2c2ccccc21 (stereo not given)	16µM*	-7%	8.2µM*	-11%	-6.7%	-1%	?	-12%
O=C(Nc1ccc(S(=O)(=O)Nc2cnc3ccccc3n2)cc1)c1ccc([N+](=O)[O-])cc1Cl	/	/	/	-2%	/	5%	26%	8%
COc1ccccc1N1CCN(c2ncnc3onc(-c4cccc(Cl)c4)c23)CC1	-9%[46.1 µM]	9%	1%[46.1 µM]	/	-0.3%	/	-1%	/
COc1ccc(OC)c(S(=O)(=O)Nc2ccccc2F)c1	-1%	-1%	0%	1%	1.4%	-2%	/	-1%
COc1ccccc1NC(=O)CCNS(=O)(=O)c1ccc2c(c1)CCN2C(=O)C1CC1	?	-8%	/	/	5.4%	/	-3%	/
CCC(c1c(C)[nH]oc1=O)c1c(C)[nH]oc1=O	?	5%	19%	-1%	-0.5%	2%	0%	-12%
CCC(Sc1ccc2nnc(-c3ccc(OC)c(OC)c3)n2n1)C(=O)O (stereo not given)	2%	-13%	0%	4%	-4.3%	3%	-6%	4%
CC1CC(NS(=O)(=O)c2cccs2)CC(C)(C)C1 (stereo not given)	-16%	-12%	-14%	5%	-1.2%	-10%[6.58 µM]	/	-8%
CC1(C)Cc2c(cnn2-c2ccc(F)cc2)C(NC(=O)CCn2cncn2)C1 (stereo not given)	-5%	/	15%	13%	/	1%	18%	9%
O=C(CNC(=O)c1ccc(Br)cc1)NCc1cccnc1	3%[46.1 µM]	/	12%[46.1 µM]	-11%	/	1%	-2%	11%
CCN(CC)CCOCCn1c(C)ccc1C	12%[46.1 µM]	/	?	-16%	/	/	-7%	/
CCCc1ccc(NS(=O)(=O)c2c(C)oc(C)c2C(=O)OC)cc1	/	/	/	-14%	/	-10%	11%	-4%
Cc1cccc(C)c1OCCN1CCOCC1	/	/	/	-6%	/	-1%	-3%	3%
CN1/C(=C/C2CC(=O)NC2=O)C(C)(C)c2ccccc21 (stereo not given)	-14%	12%	4%	3%	4.3%	2%	-19%	-70%
CCS(=O)(=O)N1CCN(c2ccc(C(=O)N3CCOCC3)cc2[N+](=O)[O-])CC1	/	/	/	-3%	/	-2%	6%	-5%

7 compounds out of the list, sorted by length of the SMILES, lowest first.
SMILES	Lassa entry inh	Cruzain inh noDet	MARV entry inh	RE007 growth inh	Cruzain Triton	SARS PLP yeast	2A StopGo	NS1 function inh
CCN(CC)CCOCCn1c(C)ccc1C	12%[46.1 µM]	/	?	-16%	/	/	-7%	/
CC1CC(NS(=O)(=O)c2cccs2)CC(C)(C)C1 (stereo not given)	-16%	-12%	-14%	5%	-1.2%	-10%[6.58 µM]	/	-8%
COc1ccc(OC)c(S(=O)(=O)Nc2ccccc2F)c1	-1%	-1%	0%	1%	1.4%	-2%	/	-1%
COc1ccccc1CNCC(O)Cn1c2ccccc2c2ccccc21 (stereo not given)	16µM*	-7%	8.2µM*	-11%	-6.7%	-1%	?	-12%
CCC(Sc1ccc2nnc(-c3ccc(OC)c(OC)c3)n2n1)C(=O)O (stereo not given)	2%	-13%	0%	4%	-4.3%	3%	-6%	4%
CC1(C)Cc2c(cnn2-c2ccc(F)cc2)C(NC(=O)CCn2cncn2)C1 (stereo not given)	-5%	/	15%	13%	/	1%	18%	9%
COc1ccccc1NC(=O)CCNS(=O)(=O)c1ccc2c(c1)CCN2C(=O)C1CC1	?	-8%	/	/	5.4%	/	-3%	/

Remaining list, next part:
SMILES	Lassa entry inh	Cruzain inh noDet	MARV entry inh	RE007 growth inh	Cruzain Triton	SARS PLP yeast	2A StopGo	NS1 function inh
COc1ccc(Br)cc1/C=N/n1c(COc2ccccc2)n[nH]c1=S	/	/	/	10%	/	1%	-16%	-4%
CCOc1cc(C(=O)Nc2cc(=O)n(C)c(=O)n2C)cc(OCC)c1OCC	2%	-2%	-20%	12%	2.5%	2%	-24%	-2%
CN(C)S(=O)(=O)c1ccc(C(=O)Nc2nnc(-c3ccco3)o2)cc1	17%[46.1 µM]	/	7%[46.1 µM]	5%	/	1%	11%	/
CCc1cc(=O)oc2cc(OCC(=O)NCC3CCC(C(=O)O)CC3)ccc12 (stereo not given)	/	/	/	6%	/	-1%	-16%	0%
CCC1Oc2ccccc2N(CC(=O)NCCCN2CCN(Cc3ccccc3)CC2)C1=O (stereo not given)	0%	-2%	?	7%	3.4%	-1%	/	-3%
CC(=O)c1cccc(NC(=O)C23CC4CC(C2)CC(n2cncn2)(C4)C3)c1	4%	9%	3%	-6%	3.6%	-3%	-4%	19%
COCCNC(=O)C(OC(=O)CC1Sc2ccccc2NC1=O)c1ccccc1 (stereo not given)	2%	-27%	10%	-14%	-27%	9%	-2%	-15%

Another view of part of the listing above.
structure,Lassa entry inh,Cruzain inh noDet,MARV entry inh,RE007 growth inh,Cruzain Triton,SARS PLP yeast,2A StopGo,NS1 function inh
COc1ccc(OC)c(S(=O)(=O)Nc2ccccc2F)c1,-1%,-1%,0%,1%,1.4%,-2%,/,-1%
COc1ccccc1NC(=O)CCNS(=O)(=O)c1ccc2c(c1)CCN2C(=O)C1CC1,?,-8%,/,/,5.4%,/,-3%,/
